CDC25B CDK2 inh = human CDC25B-CDK2/CyclinA binding inhibition; 94,000 tested, 0.72% active; HTRF CDC25B-CDK2/CyclinA binding, anti-His/anti-Flag; active compounds read high; AID 1259370; z-score (concentration not given with the values); P30305+P24941;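 also: score is relative to mean and SD of negative controls; strong numbers were not always called active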
TAR Tat displ = HIV-1 TAR-Tat binding disruption | HIV-1 TAR RNA, Tat peptide displacement FRET; active compounds read high | 100,000 tested, 0.6% active | z-score (no concentration beside the values);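 also: score is relative to mean and SD of negative controls; some compounds called inactive have numbers as strong as hits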
Numbers without * were called inactive; . = not tested or not shown.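 The calls were made as follows: active = z-score from 3 up in half or more of its runs; inactive = the rest.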

structure	CDC25B CDK2 inh	TAR Tat displ
O=C(CN1C(=O)c2ccccc2S1(=O)=O)Nc1ccncc1	-1.18	0.46
Cc1nc2ccccn2c1C(=O)N/N=C/c1ccccc1	-0.29	.
Cc1ccc(C)c(-n2c(N)c(C(N)=O)sc2=S)c1	0.17	0.17
COC(=O)Cn1cnc2c(nnn2Cc2ccccc2F)c1=O	-0.32	0.92
CC(C)(C)NC(=O)c1cc2nc3c(c(C(F)(F)F)n2n1)CCc1ccccc1-3	-1.57	1.35
Cc1ccc2cc(NC(=O)Cc3ccccc3)ccc2n1	-1.49	.
O=C(Nc1nc2ccc(Cl)cc2s1)c1cc(-c2ccncc2)n[nH]1	.	1.91
Cc1ccc(-c2onc(C)c2C)cc1S(=O)(=O)N1CCN(Cc2ccccc2)CC1	.	0.81
O=C(NCc1cccnc1)c1c(O)nc2ccccn2c1=O	-1.62	1.22
CC(=O)O[C@@H]1O[C@@H]2CO[C@@H](c3ccccc3)O[C@H]2[C@H](OC(C)=O)[C@H]1OC(C)=O	0.2	.
CCCCn1c2ccccc2n2c(C(=O)OC)c(C)nc12	-1.12	1.11
CCCc1noc(-c2ccc(-c3ccccc3)cc2)n1	-1.63	1.4

Reformatted with two lines to a compound: part of the list above.
Below each compound: CDC25B CDK2 inh, TAR Tat displ
O=C(Nc1nc2ccc(Cl)cc2s1)c1cc(-c2ccncc2)n[nH]1
    ., 1.91
Cc1ccc2cc(NC(=O)Cc3ccccc3)ccc2n1
    -1.49, .
Cc1ccc(-c2onc(C)c2C)cc1S(=O)(=O)N1CCN(Cc2ccccc2)CC1
    ., 0.81
CCCc1noc(-c2ccc(-c3ccccc3)cc2)n1
    -1.63, 1.4

As a short view, some entries already given:
structure	CDC25B CDK2 inh	TAR Tat displ
O=C(CN1C(=O)c2ccccc2S1(=O)=O)Nc1ccncc1	-1.18	0.46
Cc1nc2ccccn2c1C(=O)N/N=C/c1ccccc1	-0.29	.
Cc1ccc(C)c(-n2c(N)c(C(N)=O)sc2=S)c1	0.17	0.17
COC(=O)Cn1cnc2c(nnn2Cc2ccccc2F)c1=O	-0.32	0.92

(listing goes on)
structure	CDC25B CDK2 inh	TAR Tat displ
Cc1ccc(Nc2c(-c3cccnc3)nc3cc(C)ccn23)cc1	-2.03	.
O=C1c2cccnc2C(=O)N1c1ccc(-c2nc3ccccc3o2)cc1	1.03	-0.23
O=C(NCc1cccn1Cc1ccccc1)Nc1cccc(Br)c1	.	0.96
CC1=C(C(=O)Nc2cc(F)ccc2F)C2(CCCCC2)OC1=O	0.62	0.2
Cc1cccn2c(=O)c3cc(C(=O)N(C)Cc4ccccc4)n(C)c3nc12	.	-0.33
COC(=O)CN1C(=O)CCn2nc(C)cc21	0.71	0.78
CCc1nc2onc(C)c2c(=O)n1CC(=O)OC	-1.83	2.01
Cc1noc(C)c1S(=O)(=O)N1CCN(c2nc3ccccc3n3cccc23)CC1	-2.27	-1.11
CC(C)Cn1c(=O)c2sccc2n2c(CCCC(=O)N3CCN(c4ccc(F)cc4)CC3)nnc12	.	1.54
O=C1CC(c2ccccc2)CCc2sccc2N1 (configuration not stated)	-0.7	0.62
Cn1c2ccccc2c2c(C(=O)NCC3COc4ccccc4O3)cn(C3CCCCC3)c(=O)c21 (configuration not stated)	-1.29	.
CCCCn1c(-c2ccncc2)n[nH]c1=S	-1.68	.
CCSc1nnc(NC(=O)CSc2nc3c([nH]c4ccccc43)c(=O)n2CC)s1	.	1.25
Nc1nc2c(c(=O)[nH]1)C(c1ccccc1)CC(=O)N2 (configuration not stated)	0.09	-0.15
COc1ccc(-c2nn3c(Cc4ccccc4)nnc3s2)cc1	0.02	-0.62
Cc1ccc(S(=O)(=O)c2c[nH]c3c(F)cccc3c2=O)cc1F	-0.67	0.31
O=C(Cc1noc2ccccc12)N1CCc2ccccc21	-1.55	1.72
c1ccc(N2CCN(c3ncnc4sc5c(c34)CCCC5)CC2)cc1	.	0.43
CCc1nn2c(=O)cc(CSc3nnc(NC(=O)C(C)C)s3)nc2s1	.	-0.21
O=C(OCc1cc(=O)n2nc(C3CC3)sc2n1)c1ccc2c(c1)OCO2	.	1.2
O=C(CC1Sc2ccccc2NC1=O)NO (configuration not stated)	-3.5	.
CC1CN(Cc2ccccc2)c2nc3c(c(=O)n(CC(=O)O)c(=O)n3C)n2C1 (configuration not stated)	-1.25	-1.34
Cc1ccc(N2CC(=O)N(CC(=O)O)C2=O)cc1	-1.92	-0.4
CC(=O)Nc1ccc2nc(SCc3cc(=O)n4c(C)csc4n3)sc2c1	.	0.12
CCCCOC(=O)C(C)Oc1ccc(=O)n(-c2ccccc2)n1 (configuration not stated)	1.79	3.93
CCOc1ccc(-c2n[nH]c3c2C(c2ccc(OC)c(OC)c2)NC3=O)cc1 (configuration not stated)	-0.8	1.23
CCOC(=O)c1cc(S(=O)(=O)Nc2cc(Cl)c(OC)cc2OC)[nH]n1	.	1.03
COc1ccc(S(=O)(=O)c2cc3cccc(OC)c3oc2=O)cc1OC	-1.28	.
CN(C)CCCn1c(=O)c2c(ncn2CC(O)CO)n(C)c1=O (configuration not stated)	0.86	1.13
Cc1cc(C)c2ccc(Cl)nc2c1O	0.3	.
CCCCC12CN3CC(C)(CN(C1)C3c1c(C)[nH]c(=O)[nH]c1=O)C2=O (configuration not stated)	-0.76	1.44
CC(CC(=O)N1CCCC1)CC1=NS(=O)(=O)c2ccccc2N1 (configuration not stated)	.	1.63
Cc1[nH]nc(-c2ccc(S(=O)(=O)N3CCCC3)s2)c1C	.	0.52
CCSC1=N/C(=C\c2c(C)nn(-c3ccccc3)c2Cl)C(=O)S1	0.23	-0.01
COC(=O)C1=C(C(=O)OC)SC(=C2C(=S)C(C)(C)Nc3c(OC)cccc32)S1	-1.03	1.18
Nc1ncc(C2=C(Cl)C(O)C(Cl)=C(Cl)C2O)s1 (configuration not stated)	20.3*	.
C=CCSc1nnc(NC(=O)c2nn(-c3ccc(C)cc3)ccc2=O)s1	0.38	-0.1
CC(=O)Oc1ccc(C)cc1C1=NN(C(C)=O)C(c2cncc(Br)c2)O1 (configuration not stated)	.	1.05
CN1CCN(C(=O)c2c(NC(=O)c3ccco3)sc3c2CCC(C(C)(C)C)C3)CC1 (configuration not stated)	-2.03	.
COC(=O)c1cc(NC(=S)NC(=O)c2ccccc2)ccc1N1CCOCC1	-1.32	.
Nc1nc2c(c(C(F)(F)F)n1)CCCC2	-0.34	0.71
C=CCNC(=O)C(=O)NCC(c1cccs1)S(=O)(=O)c1ccc(Cl)cc1 (configuration not stated)	.	1.42
COC(=O)CSc1sccc1[N+](=O)[O-]	-1.79	.
NS(=O)(=O)c1ccc(NC(=O)CSc2nc3ccccc3o2)cc1	-2.32	.
CC(=O)N1c2ccc(S(=O)(=O)N3CCC(C(=O)NC4CCCC(C)C4C)CC3)cc2CC1C (configuration not stated)	.	0.44
CC(=O)Nc1ccc2nc(NC(C)=O)sc2c1	-1.1	1.69
COc1cc(/C=c2\sc3nc4ccccc4n3c2=O)cc(Cl)c1OCCCOc1ccccc1	-1.81	.
COc1ccc(C2C(C#N)=C(N)Oc3n[nH]c(-c4ccccc4)c32)cc1OC (configuration not stated)	-1.09	-0.51
O=C(Nc1ccc(OCc2cc(=O)n3cc(Cl)ccc3n2)cc1)c1cccs1	.	0.15
Fc1ccccc1/C=C1\CCCC2=C1Nc1ncnn1C2c1ccccc1F (configuration not stated)	-5.14	.
O=C(Nc1ccccc1F)C(=O)c1cn(CC(=O)N2CCCC2)c2ccccc12	.	2.4
CCC(=O)N1CCc2cc(Br)cc(S(=O)(=O)NC3CCCCCC3)c21	-0.18	.
CNC(=O)c1oc2ccc3c(c2c1C)C(=O)CC(C)(c1ccc(Cl)cc1)O3 (configuration not stated)	-2.9	0.73
Cc1noc(C)c1CCNC(=O)c1cnc(N2CCOCC2)nc1	.	-0.47
Cc1cc(C)n2ncc(C(=O)NC3CC3)c2n1	.	-1.51
CC(C)(C)NC(=O)c1cc(-c2ccc(Cl)cc2)nc2ccccc12	-1.74	.
Cc1ccc2c(c1)-c1cc(C)nn1C(c1sccc1C)N2 (configuration not stated)	-1.21	1.32
CCOC(=O)c1ccc(N2C(=O)c3n[nH]c(C)c3C2c2ccc(C(C)(C)C)cc2)cc1 (configuration not stated)	.	2.78
CC1CCN(c2nc3c(c(=O)[nH]2)CCNC3)CC1	-1.51	2.29
CCn1c(SCC(=O)c2cn(C)c3ccccc23)nnc1-c1ccc2c(c1)OCCCO2	.	4.32

(continued)
structure	CDC25B CDK2 inh	TAR Tat displ
CC1(CC(=O)O)SC(=O)NC1=O (configuration not stated)	-0.66	-0.23
Cc1cc(=O)n2c(n1)NC(Nc1ccc(F)cc1)=NC2c1ccco1 (configuration not stated)	-0.79	0.67
NC(=O)c1ccccc1NC(=O)c1ccoc1	0.86	.
Cc1c(S(=O)(=O)N(Cc2ccccn2)Cc2ccccn2)cnn1-c1ccccc1	-1.36	.
O=C1c2nccnc2C(=O)N1c1ccc(F)c(Cl)c1	-0.12	-0.6
COc1ccc(OC)c(Nc2nc3ccccc3n3c(C)nnc23)c1	-1.41	3.99
CC(Nc1c(-c2ccc(Cl)cc2)c(=O)c1=O)c1ccc2c(c1)OCCO2 (configuration not stated)	.	-1.52
COc1ccc(N2CCCS2(=O)=O)cc1NS(=O)(=O)c1ccc(Cl)cc1	.	1.21
COCCCNc1nc2c(S(=O)(=O)c3ccc(Cl)cc3)nnn2c2ccsc12	.	2.79
O=c1cc(CSC2=NS(=O)(=O)c3ccccc3N2)nc2ccc(Cl)cn12	.	1.36
CCCOC(=O)c1ccc(-n2nc(C(F)(F)F)c3c(C)cc(=O)oc32)cc1	-0.74	-0.42
O=C1CC(C(=O)O)c2ccccc21 (configuration not stated)	-1.99	.
Cc1nc(-c2ccnc(-c3cc(Cl)cc(Cl)c3)n2)cs1	1.25	.
O=C(NCC(c1ccco1)N1CCOCC1)c1ccco1 (configuration not stated)	-0.74	-0.05
CN1C(=O)c2ccccc2Sc2cc(Cl)ccc2S1(=O)=O	-1.24	.
COc1cc(/C=c2\sc3nc4ccccc4n3c2=O)cc(Cl)c1OCc1ccc(Cl)cc1	-1.39	.
O=C1O[C@H](C(O)CO)C(O)=C1O (some centres not stated)	.	1.25
O=C1CNC(=S)N1Cc1cccs1	0.29	.
Cc1ccc(C)c(S(=O)(=O)NCCCn2c(C(F)(F)F)nc3cccnc32)c1	.	-6.24
COc1ccc(-c2cn3cc(Cl)ccc3n2)cc1Br	-1.01	.
O=C(Cc1cc2ccccc2o1)NCc1ccc(F)cc1	-2.92	.
CC(=O)c1ccc(NC(=O)OC2CCSC2)cc1 (configuration not stated)	-3.08	.
O=C(O)C1CSC(c2ccccc2)N1C(=O)c1ccccc1 (configuration not stated)	.	0.97
O=C1c2cccc3cccc(c23)C(=O)N1c1ccccc1O	0.74	-2.43
CN(C)CCCN1C(=O)C(=O)/C(=C(/O)c2ccc(Br)cc2)C1c1ccc(Cl)cc1 (configuration not stated)	-1.79	0.99
Cn1c2ccccc2c2cnn(CC(=O)N3CCOCC3)c(=O)c21	-0.39	.
CCOC(=O)N1CCC(NC(=O)CCS(=O)(=O)c2cc3c(cc2Cl)NC(=O)CO3)CC1	.	2.51
Cc1ccc(C(=O)Nc2cc(C#N)c3sc4ccccc4n3c2=O)cc1	0.93	0.69
CNc1cc(=O)n(C)c(=O)n1C	1.91	.
O=C(NCc1ccc(F)cc1F)c1ccc(Cl)cc1Cl	-1.51	.
COC(=O)c1ccc(OC)c(CSC2=NS(=O)(=O)c3ccc(C)cc3N2)c1	.	2.64
CCc1ccc(S(=O)(=O)Nc2ccc3c(c2)N(S(=O)(=O)c2cccs2)CCC3)s1	.	2.98
C=CCN1C(=O)C(O)(CC(=O)c2ccccc2)c2ccccc21 (configuration not stated)	-1.62	0.25
COCCn1c(C)nc2c(sc3nc4c(cc32)COC(C)(C)C4)c1=O	.	0.94
CCn1nc(C)c(CNS(=O)(=O)c2cccc(Cl)c2)c1C	.	-1.14
CN(Cc1ccccc1)C(=O)Cn1ncc2c3ccccc3n(Cc3cccc(Cl)c3)c2c1=O	-0.14	-1.08
COc1ccc(Br)cc1C1NC(=O)c2c(sc3c2CCN(C)C3)N1 (configuration not stated)	-0.19	1.59
COc1ccc(CN(Cc2cc(=O)c3cc(Cl)ccc3[nH]2)CC(C)C)cc1OC	.	0.09
O=C(NC(=S)Nc1ccc2nn(-c3cccc4ccccc34)nc2c1)c1cccs1	-0.81	.
CCCCNc1sc(S(C)(=O)=O)nc1S(=O)(=O)c1ccc(Cl)cc1	-15.1	-0.35
COc1cc(O)c(C(C)=O)c(OC)c1	.	-0.06
O=c1oc(-c2ccccc2Br)nc2cc(Cl)ccc12	-1.56	.
CC(C)OCc1cc(CN2CCOCC2)c(O)c2ncccc12	-13.3	-0.2
CC1CCCCC1NC(=O)COCc1cc(-c2ccc3c(c2)OCO3)on1 (configuration not stated)	.	2.61
Cn1ccc(C(=O)N2CCCC2c2ccco2)n1 (configuration not stated)	0.68	0.47
